RecA intein inh: blocks M. tuberculosis RecA intein splicing. P9WHJ3. cell-free RecA intein splicing, fluorescence. inhibition, %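 (about 9 µM by stock and volumes)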. 290,000 tested, 0.75% active. AID 2221; in the data active means inhibition above about 30%; inconclusive means no clear call, values can overlap the other calls;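 further: 0% = vehicle wells and 100% = reference inhibitor control wells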
Target sequence (P9WHJ3 whole entry, looked up): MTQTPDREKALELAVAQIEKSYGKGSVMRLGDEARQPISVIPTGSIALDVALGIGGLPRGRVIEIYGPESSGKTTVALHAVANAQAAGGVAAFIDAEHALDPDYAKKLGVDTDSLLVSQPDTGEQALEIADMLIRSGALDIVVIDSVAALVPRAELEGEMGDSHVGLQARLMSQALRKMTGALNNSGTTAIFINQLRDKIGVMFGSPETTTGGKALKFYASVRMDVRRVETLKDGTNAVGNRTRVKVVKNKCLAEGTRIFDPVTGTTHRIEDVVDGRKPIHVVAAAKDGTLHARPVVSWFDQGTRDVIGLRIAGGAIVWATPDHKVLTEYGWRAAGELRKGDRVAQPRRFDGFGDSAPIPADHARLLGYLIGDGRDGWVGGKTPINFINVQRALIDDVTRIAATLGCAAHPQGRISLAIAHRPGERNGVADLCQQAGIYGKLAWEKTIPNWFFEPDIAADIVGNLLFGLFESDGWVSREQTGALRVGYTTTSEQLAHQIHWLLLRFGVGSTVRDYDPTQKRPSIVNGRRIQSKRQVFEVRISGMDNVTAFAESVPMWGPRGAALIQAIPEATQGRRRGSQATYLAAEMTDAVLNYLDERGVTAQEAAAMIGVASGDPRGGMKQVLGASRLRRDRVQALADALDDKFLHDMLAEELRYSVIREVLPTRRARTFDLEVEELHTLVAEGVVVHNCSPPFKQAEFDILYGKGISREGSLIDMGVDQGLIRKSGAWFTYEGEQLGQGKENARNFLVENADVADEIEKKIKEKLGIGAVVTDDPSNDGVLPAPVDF
Arbovirus anti: arbovirus infection inhibition. arbovirus infection cell-based antiviral screen. inhibition, % at 10 µM. 200,000 tested, 0.37% active;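 active means inhibition from about 30%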;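 further: bluetongue infection of BSR cells; cell survival read as ATP light after 72 h; 0% = infected wells without compound and 100% = uninfected wells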
Mtb H37Rv: M. tuberculosis H37Rv growth inhibitors, H37Rv strain (AID 1626); M. tuberculosis H37Rv growth inhibition; higher % means a stronger effect; inhibition, % at 10 µM, or IC50 in µM where a hit was titrated; 220,000 tested, 0.95% active;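 active means confirmed in a dose series; inconclusive means inhibition above 80% but not taken into the dose series; inactive means below 80% or under 30% at every dose of the series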;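 further: bacteria incubated seven days before Alamar blue readout; 0% = bacteria only wells and 100% = bacteria with antibiotic wells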
YopH PTP inh: YopH (Yersinia) phosphatase inhibition. fluorescence Ex485/Em525. inhibition, %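 (about 10 µM by stock and volumes)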. 140,000 tested, 0.16% active. AID 898;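 active means inhibition of 50% or more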;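 further: controls were vehicle for no effect and minimum signal wells for full effect; inactives centre near -20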
Mtb bLac sens: beta-lactam sensitization of Mtb H37Rv; M. tuberculosis H37Rv growth with meropenem, percent inhibition; hits of this screen are not shown here; inhibition, % at 25 µM; 330,000 tested, 0.27% active;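 active means about 74% or more and at least 40 points above the plate without the antibiotic, then above 30% in a dose series; inconclusive means first-round hits that could not be retested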;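 further: growth measured after seven days incubation then overnight dye step; 0% = bacteria only wells and 100% = bacteria with antibiotic; twin plates without the antibiotic show which effects depend on it; some results filed as inactive read as strong as hits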
Arbovirus anti repeat: also measured in Arbovirus anti; calls as there; inhibition, %; measured here: 10K subset replicate screen; many hits read low in the repeat;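 first of two repeat runs on a subset; 0% = infected and 100% = uninfected wells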
Active calls of the source: *; ? = inconclusive; / = no result given. This is a subset; the hit share may differ from the screen's.

SMILES | RecA intein inh | Arbovirus anti | Mtb H37Rv | YopH PTP inh | Mtb bLac sens | others
CC1CC2(CCCCC2)Nc2ccc3ccccc3c21 (stereo unspecified) | 11 | -2 | 26% | 33 | /
c1ccc(-c2nc(N3CCOCC3)cc(N3CCOCC3)n2)cc1 | -1.7 | 10 | 1% | / | 7
Cc1cccc(NC(=S)N(Cc2cccc(Br)c2)CC2CCC(C(=O)O)CC2)c1 (stereo unspecified) | 1.0 | 9 | 5% | / | 0
Cc1cccc(C(=O)OCC(=O)NCc2cccs2)c1 | -3.7 | 1 | 5% | / | -7
Cc1cccc(CS(=O)(=O)Cc2ccc(C(=O)NC3CCCC3)o2)c1 | -0.9 | / | / | / | -2
Cn1c(SCc2cccc(C#N)c2)nc2ccccc2c1=O | -0.5 | / | / | / | -2
O=C(N/N=C/c1c[nH]c2ccccc12)c1ccc(Cl)cc1 | -1.3 | / | / | / | 0
O=C(CCN1C(=O)/C(=C/c2cccs2)SC1=S)Nc1ccc(O)cc1 | 8.1 | / | / | / | 3
O=c1oc2cc(Br)ccc2n1Cc1ccccc1 | 3.5 | / | / | / | -4
CN(C(=O)COc1ccc(Cl)cc1Cl)C1(C)CCS(=O)(=O)C1 (stereo unspecified) | 2.4 | / | / | / | -16
COc1cc2sc3ccc(C#CC4(O)CCCCC4)cc3c(=O)c2cc1OC | -11 | / | 6% | / | 82
CCn1c(O)c(C(c2ccccn2)c2c(O)n(CC)c(=S)[nH]c2=O)c(=O)[nH]c1=S | -2.9 | 4 | 14% | -23 | 24
O=C(/C=C/c1ccccc1)c1c[nH]c2ccccc12 | / | / | -4% | / | 0
COc1ccccc1-c1nnc(NC(C)=O)s1 | 0.8 | -2 | 1% | -22 | 1
COc1ccc(OC)c(C(=O)c2ccc(C(=O)Nc3ccc(NC(C)=O)cc3)cc2)c1 | -0.5 | / | / | / | 1
COc1ccc(OC)c(S(=O)(=O)N2CCC(C(=O)NC3CCCCC3)CC2)c1 | -1.5 | / | / | / | -1
NC(=O)CCCSc1nc2ccccc2[nH]1 | -0.3 | 11 | 21% | / | 1
CCn1c(-c2csc3ccccc23)n[nH]c1=S | -3.8 | -7 | 8% | -50 | 4
COc1ccc(C(=O)NC(=S)NNC(=O)Cc2cccs2)cc1 | -3.4 | -12 | 6% | -16 | 9
CNNC(=S)Nc1cccc(C(F)(F)F)c1 | / | / | -6% | / | -11
Nc1cc(N)nc(SCC(=O)N2CCCCC2)n1 | -0.6 | 6 | -5% | -40 | -3
CSc1ccc(C(=O)C2CCCN(Cc3cc4ccccc4[nH]3)C2)cc1 (stereo unspecified) | 3.3 | -29 | 2.4µM* | / | 99
CCOc1ccccc1-n1cnc2cc(C(=O)NCc3ccco3)ccc21 | 6.6 | -5 | 0% | -37 | 52
O=C(NCCCN1CCCCCC1)c1cc2c(=O)oc3ccccc3c2s1 | -1.9 | / | / | / | 1
O=C(C1CCN(S(=O)(=O)c2ccc(Br)s2)CC1)N1CCCCC1 | -0.7 | / | / | / | 12

Next section; it opens with the three that closed the last part.
SMILES | RecA intein inh | Arbovirus anti | Mtb H37Rv | YopH PTP inh | Mtb bLac sens | others
CCOc1ccccc1-n1cnc2cc(C(=O)NCc3ccco3)ccc21 | 6.6 | -5 | 0% | -37 | 52
O=C(NCCCN1CCCCCC1)c1cc2c(=O)oc3ccccc3c2s1 | -1.9 | / | / | / | 1
O=C(C1CCN(S(=O)(=O)c2ccc(Br)s2)CC1)N1CCCCC1 | -0.7 | / | / | / | 12
Cc1csc(=Nc2ccccc2)n1Cc1ccco1 | 4.7 | 6 | 6% | / | -9
O=[N+]([O-])c1ccc(/C=N/N/C(=N/c2ccccn2)c2ccccn2)cc1 | 1.9 | 6 | 6% | 23 | -1
O=C(Cn1cnc2scc(-c3cccc([N+](=O)[O-])c3)c2c1=O)NCc1ccco1 | 1.3 | -2 | 9% | / | 4
Cc1ccc2c(c1)C(O)(CC(=O)c1ccc(C)s1)C(=O)N2 (stereo unspecified) | -3.0 | 9 | -8% | / | -3
N#CCCN1CCN(C2=NC(=O)C(=C3CCCCC3)S2)CC1 | 0.9 | -1 | -15% | -50 | -17
CN(C)S(=O)(=O)c1cccc(C(=O)Nc2ccc(N3CCOCC3)cc2)c1 | 15 | / | 4% | / | -6
Cc1cc(C)nc(N/N=C2/CCCC/C2=C\c2ccccc2)n1 | -7.6 | 7 | -4% | / | 5
COc1ccc(C(=S)N2CCN(c3ccccc3C)CC2)cc1 | 8.8 | / | -5% | / | 9
Cc1cc(C)n(-c2cc(N3CCN(C(=O)c4cccc(Br)c4)CC3)ccc2[N+](=O)[O-])n1 | 6.0 | -3 | 12% | -21 | -2
CCc1nnc(NC(=O)CN2C(=O)c3ccccc3C2=O)s1 | 0.6 | 8 | 0% | -41 | 1
O=C(/C=C/c1cccc([N+](=O)[O-])c1)N1CCN(c2ccc(F)cc2)CC1 | 8.1 | -3 | 6% | -16 | 0
O=C(CCc1ccccc1)Nc1nc2c(F)cc(F)cc2s1 | 3.2 | / | 12% | / | -1
CCOC(=O)c1cnc(-n2nc(C)cc2C)nc1NCCO | -0.9 | 3 | 4% | 18 | -3
CN(C)CCn1c(C(=O)O)cc2ccccc21 | 0.0 | -1 | -4% | -8 | 5
CCOC(=O)C1CCN(CC(O)COCc2ccc3c(c2)OCO3)CC1 (stereo unspecified) | 0.1 | 4 | / | / | -4
CC1=C(C(=O)Nc2cccc([N+](=O)[O-])c2)C2(CCC(C)CC2)OC1=O (stereo unspecified) | -1.9 | 3 | -7% | / | 6
CCn1c2ccccc2c2cc(NC(=O)COC(=O)c3cc(S(=O)(=O)N4CCCCC4)ccc3Cl)ccc21 | -0.7 | 2 | 4% | -19 | 4
COc1cccc(/C=C/C(=O)OCC(=O)NCc2ccc(Cl)cc2)c1 | 2.8 | 0 | 8% | / | 1
Cc1ccc(C2=NOC(C)(c3nnc(-c4ccc(Cl)cc4)o3)C2)cc1 (stereo unspecified) | 5.7 | / | -12% | / | -1
O=C(O)CC(NC(=O)C12CC3CC(CC(C3)C1)C2)c1ccc(OC2CCCC2)cc1 (stereo unspecified) | 0.0 | 3 | 5% | / | 4
COc1ccccc1C1=NOC(C)(c2sc(-c3ccccc3)nc2C)C1 (stereo unspecified) | 0.7 | / | -11% | / | 1
CC1(OC(=O)c2cnc3ccccc3n2)C(=O)C=C2C=C(C3CC3)OC=C2C1=O (stereo unspecified) | -11 | / | -7% | / | 1
CCc1ccc(C(c2c(C)nn(-c3ccccc3)c2N)c2c(C)nn(-c3ccccc3)c2N)cc1 | 17 | -20 | 31% | 4 | 99
O=C(Nc1nncs1)c1ccc(S(=O)(=O)c2ccccc2)cc1 | -2.0 | 3 | -11% | -15 | -2
CCOC(=O)c1c(C)[nH]c(C)c1S(=O)(=O)N1CCN(c2ccc(F)cc2)CC1 | -3.1 | / | / | / | 23
(listing goes on)
SMILES | RecA intein inh | Arbovirus anti | Mtb H37Rv | YopH PTP inh | Mtb bLac sens | others
Cn1c(SCC(=O)NCCc2ccccc2)nnc1C1CCCCC1 | -0.5 | / | / | / | 8
O=C(NCc1ccco1)C1CCN(S(=O)(=O)c2ccc(-n3cnnn3)cc2)CC1 | 1.4 | 0 | -1% | -37 | -2
CCn1c(=O)n(CCc2ccccc2)c(=O)c2c3c(sc21)CCCC3 | -1.1 | -5 | 1% | -23 | 8
O=C(NN1CCOCC1)c1cc(-c2ccc(Cl)c(Cl)c2)nc2ccccc12 | -1.7 | -11 | 1% | -20 | 7
Cc1nnc(Oc2ccc([N+](=O)[O-])cc2)c2ccccc12 | -2.7 | / | / | / | 2
O=Cc1c(C(=O)O)n(Cc2ccc(Cl)cc2)c2ccccc12 | -21 | -2 | -22% | -53 | 2
Nc1ccccc1C(=O)Nc1ccc(Cl)cc1Cl | 3.6 | / | -1% | / | -2
Cc1nc2ccc(NC(=O)NCc3ccco3)cc2s1 | -1.1 | 5 | -3% | -18 | -6
O=C(Nc1cccc(O)c1)c1ccc(NC(=O)C2CCCO2)cc1 (stereo unspecified) | 0.5 | / | / | / | -2
O=C(NNC(=O)c1ccc(-c2ccccc2)cc1)Nc1ccccc1 | -1.0 | / | / | / | 23
COc1cc(C(C)=O)ccc1OCc1nnc(-c2ccccc2Br)o1 | 0.9 | / | / | / | -12
COC(=O)Cc1[nH]n(-c2ccccc2)c(=O)c1C=Nc1ccc(C)cc1 | -0.5 | / | 1% | / | 41
Cn1c(SCc2ccccc2)nnc1-c1ccco1 | -0.2 | 24 | 0% | / | 3
CCOC(=O)Cc1nnc2c(Nc3ccc(Cl)cc3)nc3nonc3n12 | 1.8 | -10 | -6% | -46 | 1
CC(C#Cc1ccc2c(c1)COc1c3ccccc3nn1-2)OC(C)(C)C (stereo unspecified) | 5.0 | / | / | / | 12
O=C(NCC(=O)N(Cc1ccccc1)C(C(=O)NCC1CCCO1)c1ccccc1)c1cccs1 (stereo unspecified) | 0.2 | -3 | -2% | -13 | 1
O=C(Nc1cccc(Cl)c1Cl)c1snnc1-c1ccccc1 | 9.0 | 3 | 4% | -23 | -4
CC(C)(CNC(=O)c1sc2cc(Cl)ccc2c1Cl)N1CCOCC1 | 2.9 | / | / | / | 22
COc1ccc(NC(=O)C(c2ccc(C)cc2)N(C)C(=O)CC2NC(=O)NC2=O)cc1 (stereo unspecified) | -3.2 | -3 | -1% | -7 | 0
COc1ccc(S(=O)(=O)N2CCC(NC(=O)OCc3c(Cl)cccc3Cl)CC2)cc1 | -0.7 | 7 | 12% | -35 | -2
O=C(O)c1cc(-c2ccc(Cl)c(Cl)c2)n(-c2ccccc2)n1 | 3.5 | / | / | / | 2
Cc1cc(C)cc(N(CC(=O)Nc2ccccc2-c2ccccc2)S(=O)(=O)c2ccccc2)c1 | -0.7 | -8 | -15% | -33 | 4
COC(=O)c1cc2nc(-c3ccc(C)cc3)cc(C(F)(F)F)n2n1 | -0.7 | 4 | -1% | / | 1
O=C(NCc1ccncc1)c1c(F)c(F)c(F)c(F)c1F | -1.2 | 15 | -4% | 14 | 0
O=C(NN=C1CCCC1)c1[nH]c2ccc(Br)cc2c1-c1ccccc1 | 20 | / | ? | / | 77
Other records follow.
SMILES | RecA intein inh | Arbovirus anti | Mtb H37Rv | YopH PTP inh | Mtb bLac sens | others
O=C(NCCN1CCCC1)c1ccc(Cl)cc1 | 1.7 | -2 | -2% | / | -12
CN(C)CCNC(=O)c1cc2c(=O)n(C)c3ccccc3c2n1C | -1.5 | 4 | 5% | -35 | -1 | Arbovirus anti repeat=-4
CCOC(CCNC(=O)c1cn(C)c(=O)c2c1c1ccccc1n2C)OCC | -1.0 | / | / | / | 1
Cc1cc(/C=C2\NC(=O)N(Cc3ccc(Cl)cc3)C2=O)c(C)n1C | / | -7 | 5% | -22 | -6
COc1ccccc1/C=C1/SC(=O)N(CCC(=O)Nc2ccc(S(=O)(=O)Nc3nccs3)cc2)C1=O | 5.9 | -4 | 2% | -27 | 4
O=C(c1ccco1)N1CCN(c2nc(C3CC3)nc3sc4c(c23)CCCC4)CC1 | 38* | -25 | 10% | -17 | 99
O=C(Cn1cnc2c(nnn2Cc2ccccc2)c1=O)c1ccccc1 | -1.2 | 1 | / | -7 | 6
O=C(CSc1ccc(-c2ccco2)nn1)c1ccc(F)cc1 | 0.1 | -19 | -1% | -24 | -6
CN1CCC(=C(c2ccccc2)c2ccc(Br)cc2)CC1 | 5.3 | / | / | / | -6
COc1ccccc1NC(=S)NC(=O)CC(C)C | 1.9 | 5 | 7% | -5 | 30
O=C(NCC(c1cccnc1)N1CCOCC1)c1cccc(Cl)c1 (stereo unspecified) | -1.6 | 7 | -5% | -60 | -2
COc1ccc(CN2C(=O)c3oc4ccccc4c(=O)c3C2c2ccc(O)c(OC)c2)cc1 (stereo unspecified) | -1.0 | / | -7% | / | -6
CCOC(=O)c1c(CSc2ccsc2)n(C)c2cc(Br)c(O)c(CN(C)C)c12 | 11 | / | 6% | / | -3
CC(C)CCOP(=O)(c1ccc(N(C)C)cc1)C(O)c1ccc(N(C)C)cc1 (stereo unspecified) | 2.4 | / | / | / | 1
COc1ccc(C(=O)C[n+]2cccc(C)c2)cc1 | -0.1 | 3 | 3% | -12 | -4
Fc1ccccc1Oc1nc(-c2ccncc2)nc2ccccc12 | 0.9 | / | 2% | / | 46

Compounds from the list above that have a CF3 group:
SMILES | RecA intein inh | Arbovirus anti | Mtb H37Rv | YopH PTP inh | Mtb bLac sens | others
CNNC(=S)Nc1cccc(C(F)(F)F)c1 | / | / | -6% | / | -11
COC(=O)c1cc2nc(-c3ccc(C)cc3)cc(C(F)(F)F)n2n1 | -0.7 | 4 | -1% | / | 1

Gathered by group: the compounds so far containing a cyano group
SMILES | RecA intein inh | Arbovirus anti | Mtb H37Rv | YopH PTP inh | Mtb bLac sens | others
Cn1c(SCc2cccc(C#N)c2)nc2ccccc2c1=O | -0.5 | / | / | / | -2
N#CCCN1CCN(C2=NC(=O)C(=C3CCCCC3)S2)CC1 | 0.9 | -1 | -15% | -50 | -17
